Bioassay records (PubChem BioAssay)
HPGD inh: qHTS Assay for Inhibitors of HPGD (15-Hydroxyprostaglandin Dehydrogenase); Potency, µM, for the others: top-dose activity change, negative = inhibition, most hits filed as inhibitors; purified HPGD, NADH fluorescence kinetic, PGE2 substrate; 150,000 compounds, 4.3% hits; active = well fitted inhibition curve with a large enough effect (not every such curve was filed as active); inconclusive = small, poorly fitted or top-dose-only effect, or another doubt; inactive = no such curve, though single readings can be large or run the other way;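 further: top concentration of the series not given in the record; plate controls included wells without enzyme; inactives centre near -10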
Target sequence (P15428 whole entry, looked up): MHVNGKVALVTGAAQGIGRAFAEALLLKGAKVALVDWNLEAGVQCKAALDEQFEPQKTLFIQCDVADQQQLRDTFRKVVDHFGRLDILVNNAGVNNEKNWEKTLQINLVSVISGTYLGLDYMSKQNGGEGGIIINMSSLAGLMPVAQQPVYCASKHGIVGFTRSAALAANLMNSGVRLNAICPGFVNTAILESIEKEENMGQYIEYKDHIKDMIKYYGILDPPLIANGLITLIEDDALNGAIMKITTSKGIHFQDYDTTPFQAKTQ
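NADH formation kinetics: reaction with 30 uM PGE2 and 1 mM NAD+ (final), 20 nM enzyme, Tris-HCl pH 8 with Tween 20, after 15 min compound preincubation at room temperature. Fluorescence change, last versus first of five reads.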
An asterisk follows results filed as active; ? = inconclusive. On the % scale 0 is the no-effect control and ±100 the full control effect; potency means the concentration at half of the fitted maximal effect.

Start of the listing, in advance (20 entries):
SMILES	HPGD inh
O=C1C2C(C(=O)N1/N=C/c1ccc([N+](=O)[O-])o1)C1C=CC2C12CC2 (configuration not stated)	-17%
CCN1CCN(C(C)C(=O)Nc2c(C)n(C)n(-c3ccccc3)c2=O)CC1 (configuration not stated)	-3%
COc1cc(CO)cc(Br)c1OCC(=O)N1CCCCC1	-9%
O=C(NCc1ccc(Cl)cc1)c1cnn2ccccc12	9%
O=C(Cc1cccc2ccccc12)Nc1nnc(-c2cccc([N+](=O)[O-])c2)s1	-11%
CC1(C)CC(CCC(=O)Nc2ccc(S(N)(=O)=O)cc2)C(=O)O1 (configuration not stated)	9%
COc1ccc(C(=O)NNC2CC(=O)N(Cc3ccccc3)C2=O)cc1OC (configuration not stated)	2%
NC(=O)c1ccc(-n2nnnc2Oc2ccccc2)cc1	-2%
COc1ccc(C/C(N)=N/n2cnnc2)cc1Cl	-13%
N#Cc1ccc(-n2nccc2-c2cnc3n(c2=O)CCS3)cc1	-9%
COc1ccc(S(=O)(=O)Nc2ccccc2C(=O)Nc2nc(-c3ccc(F)cc3)cs2)cc1OC	?
CC(CCc1ccccc1)NC(=O)CN1CCN(Cc2ccc(Cl)cc2)C1=O (configuration not stated)	-4%
Cc1ccc(C)c(N/N=C2\CCCNC2=O)c1	-21%
COC(=O)c1cc(=O)nc2sc(-c3ccccc3)nn12	-17%
COc1ccc(C(=O)N2CCN(S(=O)(=O)c3ccc(Cl)cc3)CC2)cc1OC	0%
COc1cccc(-c2cc(C(=O)Nc3ccc([N+](=O)[O-])cn3)c3ccccc3n2)c1	-22%
CC1(C2(O)CC(c3ccccc3)ON2)CCCCC1 (configuration not stated)	-12%
CCOc1ccc(C(C(=O)NC2CCCC2)N(Cc2ccccc2)C(=O)c2nsc(Cl)c2Cl)cc1 (configuration not stated)	-15%
O=C(CCc1ccccc1)Nc1nc2n(n1)C(c1ccccc1)CC(=O)N2 (configuration not stated)	-4%
CCCOc1ccc(C(=O)C(c2ccccc2)N2CCOCC2)cc1 (configuration not stated)	?

All compounds of this part, from the first entry:
SMILES	HPGD inh
O=C1C2C(C(=O)N1/N=C/c1ccc([N+](=O)[O-])o1)C1C=CC2C12CC2 (configuration not stated)	-17%
CCN1CCN(C(C)C(=O)Nc2c(C)n(C)n(-c3ccccc3)c2=O)CC1 (configuration not stated)	-3%
COc1cc(CO)cc(Br)c1OCC(=O)N1CCCCC1	-9%
O=C(NCc1ccc(Cl)cc1)c1cnn2ccccc12	9%
O=C(Cc1cccc2ccccc12)Nc1nnc(-c2cccc([N+](=O)[O-])c2)s1	-11%
CC1(C)CC(CCC(=O)Nc2ccc(S(N)(=O)=O)cc2)C(=O)O1 (configuration not stated)	9%
COc1ccc(C(=O)NNC2CC(=O)N(Cc3ccccc3)C2=O)cc1OC (configuration not stated)	2%
NC(=O)c1ccc(-n2nnnc2Oc2ccccc2)cc1	-2%
COc1ccc(C/C(N)=N/n2cnnc2)cc1Cl	-13%
N#Cc1ccc(-n2nccc2-c2cnc3n(c2=O)CCS3)cc1	-9%
COc1ccc(S(=O)(=O)Nc2ccccc2C(=O)Nc2nc(-c3ccc(F)cc3)cs2)cc1OC	?
CC(CCc1ccccc1)NC(=O)CN1CCN(Cc2ccc(Cl)cc2)C1=O (configuration not stated)	-4%
Cc1ccc(C)c(N/N=C2\CCCNC2=O)c1	-21%
COC(=O)c1cc(=O)nc2sc(-c3ccccc3)nn12	-17%
COc1ccc(C(=O)N2CCN(S(=O)(=O)c3ccc(Cl)cc3)CC2)cc1OC	0%
COc1cccc(-c2cc(C(=O)Nc3ccc([N+](=O)[O-])cn3)c3ccccc3n2)c1	-22%
CC1(C2(O)CC(c3ccccc3)ON2)CCCCC1 (configuration not stated)	-12%
CCOc1ccc(C(C(=O)NC2CCCC2)N(Cc2ccccc2)C(=O)c2nsc(Cl)c2Cl)cc1 (configuration not stated)	-15%
O=C(CCc1ccccc1)Nc1nc2n(n1)C(c1ccccc1)CC(=O)N2 (configuration not stated)	-4%
CCCOc1ccc(C(=O)C(c2ccccc2)N2CCOCC2)cc1 (configuration not stated)	?
CCCCCC(=O)/C=C/C=C\C/C=C\C/C=C\CCCC(=O)O	-3%
CC(CCc1ccccc1)NC(=O)C(=O)Nc1ccccc1 (configuration not stated)	0%
Cc1sc2ncnc(N3CCCCC3)c2c1C	0%
Cc1c(NS(=O)(=O)c2ccc(NC3CCCC3)c([N+](=O)[O-])c2)c(=O)n(-c2ccccc2)n1C	-7%
Cc1ccc(NC(=O)CSc2nnc(C(F)(F)F)n2C)cc1[N+](=O)[O-]	2%
Cc1cccc(-c2cc(C(=O)Nc3sc(C)c(C)c3C(N)=O)c3ccccc3n2)c1	-14%
Cc1cccc(N/C=C/C(=O)c2cccs2)c1C	-14%
COc1ccc(/C=N/NC(=O)c2ccc(NC(=O)c3ccccc3Br)cc2)cc1	?
O=C(NCCc1nc2ccccc2[nH]1)/C(=C/c1ccc2c(c1)OCO2)NC(=O)c1ccccc1Cl	-15%
O=C(O)Cc1ccc(NC(=O)C2CCCCC2C(=O)O)cc1 (configuration not stated)	-6%
O=c1ccc2cc(S(=O)(=O)N3CCOCC3)ccc2o1	0%
COc1ccccc1NC(=O)Nc1nnc(-c2ccco2)s1	-20%
CC(=O)Nc1ccc(NC(=O)COc2ccc(Br)cc2C)cc1	-14%
O=C(O)c1ccc(S(=O)(=O)N2CCC(c3nc(-c4ccccc4Cl)no3)CC2)cc1	-9%
CCCc1nn(C)c2c1C(c1cccnc1)C(C#N)=C(N)O2 (configuration not stated)	-7%
Cc1ccccc1NC(=O)N1CCCC(c2nc(-c3ccc(F)cc3)no2)C1 (configuration not stated)	-11%
CCC(=O)Nc1cc2c(cc1C(=O)c1ccccc1)OCCO2	-4%
CCOC(=O)C1=C(CN2CCc3ccccc32)NC(=O)NC1c1cccc([N+](=O)[O-])c1 (configuration not stated)	-19%
CCC(c1nnnn1C(C)(C)C)N(CCOC)Cc1cc2cccc(C)c2n2nnnc12 (configuration not stated)	-2%
COC(=O)c1cccc(C(=O)Nc2ccc(C)cc2)n1	-5%
COc1cc2c(cc1NC(=O)c1cc(-c3cccnc3)nc3ccc(C)cc13)oc1ccccc12	-14%
COc1ccccc1-c1cnnc(N/N=C/c2ccc(-c3cccc(Br)c3)o2)n1	-3%
CC(=O)n1cc(/C=N/NC(=O)c2sc(C)nc2C)c2ccccc21	?
CC(C)C[C@H](NC(=O)OC(C)(C)C)c1nnc(SCc2ccccc2)o1	-11%
COc1cccc(NC(=O)c2nc3ncccn3n2)c1	-18%
C=CCc1cccc(CNc2nc3ccccc3n2CCN2CCOCC2)c1O	-10%
Cc1ccc([N+](=O)[O-])cc1N/C=C1\CCc2ccccc2C1=O	-20%
Cc1c(C(=O)N2CCCC2)sc(NC(=O)c2ccccc2)c1C#N	?
COc1ccc2c(CC(=O)N(C)CC3COc4ccccc4O3)coc2c1 (configuration not stated)	?
Cc1ccc(NC(=O)c2sccc2-n2cccc2)c(C)c1	-6%
O=C(O)c1cc(-c2ccncc2)nc2ccc(S(=O)(=O)N3CCOCC3)cc12	-8%
CCC(=O)N1N=C(c2cccc(NS(C)(=O)=O)c2)CC1c1cccs1 (configuration not stated)	-14%
Cn1c(SCc2cccc(F)c2)nnc1-c1ccccn1	-5%
Cc1cc(/C=N/NC(=O)Cn2c3ccccc3c(=O)c3ccccc32)c(C)n1-c1ccccc1	?
CCOc1ccc(NC(=O)CC2NCCNC2=O)cc1 (configuration not stated)	1%
O=C(CSc1ccccc1)N1CCc2ccccc21	-5%
CC(=O)Nc1ccn(Cc2c(F)cccc2Cl)n1	0%
c1ccc2c3c(cc(N4CCOCC4)c2c1)OC1(N2CCOCC2)CCCCC1O3 (configuration not stated)	?
Cc1ccccc1Cn1ccc(NC(=O)c2cnn3c2NC(c2ccccc2)CC3C(F)(F)F)n1 (configuration not stated)	-9%
C=CCc1c(C)nc(C)nc1N/N=C/c1ccccc1	-28%
Remaining list, next part
SMILES	HPGD inh
CCOC(=O)c1ccc(N2C(=O)CC(N3CCOCC3)C2=O)cc1 (configuration not stated)	-3%
COc1ccc(-c2csc(Nc3ncccc3C)n2)cc1OC	-9%
O=C(CNC(c1ccccc1)c1ccccc1)Nc1ccccc1-c1ccccc1	-19%
CCOC(=O)CC1C(=O)NCCN1C(=S)Nc1ccccc1 (configuration not stated)	-17%
COc1ccc(-c2nc3n(n2)C(c2ccncc2)C(C(N)=O)=C(C)N3)cc1 (configuration not stated)	-3%
C=CCn1sc(=N)c(C#N)c1N	-3%
O=C(NN=C1C2CC3CC(C2)CC1C3)c1ccncc1	2%
CCCCOC(=O)c1c(C)oc2ccc(NS(=O)(=O)c3ccc4c5c(cccc35)C(=O)N4)cc12	?
CCn1nnc(NC(=O)c2cc(Cl)c(OC)c(Cl)c2)n1	-7%
Cc1sc2ncnc(Sc3nnnn3-c3ccccc3)c2c1C	?
CN(C)c1nc(N2CCN(c3ccc(F)cc3)CC2)c(C#N)c(=O)o1	?
CCOC(=O)N1CCN(C(=O)CSc2nnc(CNC(=O)c3ccccc3F)o2)CC1	0%
CN(CCCNC(=O)COc1cc(=O)n(C)c2ccccc12)Cc1ccccc1	-8%
COC(=O)[C@H]1C[C@@H]1[C@H](N)c1ccccc1	-11%
O=C(Nc1cccc(F)c1)N1CC=C(n2c(=O)[nH]c3ccccc32)CC1	?
COc1ccc2nc(SCC(N)=O)cc(C)c2c1	-12%
Cc1ccc(-c2ccc(C(=O)NCc3ccccc3)o2)c2ccccc12	?
Cc1cc2c(=O)n(Cc3ccco3)c(SCC(=O)N3CCCc4ccccc43)nc2s1	-12%
CCCCC1CCC(C(=O)NC2CCS(=O)(=O)C2)CC1 (configuration not stated)	-7%
COc1cccc(C2CC(c3cccc(NS(C)(=O)=O)c3)=NN2C(=O)c2ccccc2)c1OC (configuration not stated)	-17%
COC(=O)c1ccccc1NC(=O)CSc1ccc(C)cc1	-6%
CCCCCCCCCC(=O)NC(CN1CCOCC1)[C@H](O)c1ccccc1 (some centres not stated)	6%
Cc1nnc(NC(=O)CSc2nnnn2Cc2ccccc2)s1	-13%
O=S(=O)(O)CCCc1cccc2ccccc12	-4%
CCOC(=O)C1=C(CN2CCc3ccccc32)NC(=O)NC1c1ccc(Cl)cc1 (configuration not stated)	-12%
Cc1n[nH]c(C)c1S(=O)(=O)N(CC(=O)NC1CCCC1)c1ccc(C(C)C)cc1	-3%
CCc1nnc(NC(=O)CN2CCN(c3ccccc3OC)CC2)s1	-2%
Cc1cccc([C@H]2[C@@H]3C=CC(C)C[C@@H]3C(=O)N2Cc2ccccc2)c1 (some centres not stated)	-20%
COc1cccc(CN(C)CC(=O)NCc2ccccc2Cl)c1	-22%
CCOc1ccc(N=NS(=O)(=O)O)cc1	-11%
COc1ccc(-n2cnc3cc(NS(=O)(=O)c4ccc(C)cc4)ccc32)cc1	-7%
Cc1cc(=O)oc2cc(OCC(=O)NCc3ccncc3)ccc12	?
CC(C)OC(=O)CC(=O)CSc1nc2c(cc1C#N)CCC2	?
Cc1cccc(C(=O)c2ccccc2C(=O)O)c1O	1%
O=C(O)CCCC(=O)Nc1ccc(C(=O)N2CCCCC2)c(Cl)c1	0.45µM*
Cc1ncsc1CCOC(=O)C1C2CC3CC(C2)CC1C3 (configuration not stated)	-12%
O=C(Cn1c(=O)oc2cc(S(=O)(=O)N3CCCCCC3)ccc21)NC1CCCCC1	-24%
O=C(NC1CCN(S(=O)(=O)c2ccccc2)CC1)C1CCCCC1	-2%
COc1cc(NC(=S)N2CCC(C(N)=O)CC2)cc(OC)c1	-4%
CC(C)(C)CC(=O)Nc1cc(S(=O)(=O)N2CCCCCC2)ccc1Cl	-6%
CCC(=O)/C=C1\Sc2ccc(OC)cc2N1CC	28µM*
Cc1ccc(C(=O)CSc2nnc3c4ccccc4nc(C(C)(C)C)n23)cc1	-22%
COc1ccc(Cl)cc1Nc1nc(N2CCCC2)nc(N2CCCC2)n1	-1%
O=C1N(CCCN2C(=O)C3(OCCO3)c3ccccc32)c2ccccc2C12OCCO2	-13%
COc1ccc(N(CC(=O)NC2CCCCC2)C(=O)CNC(=O)c2ccco2)cc1OC	-18%
Cc1cc(C(=O)NNC(=S)Nc2ccccc2C)cs1	-18%
COc1ccc(C(c2nnnn2C(C)(C)C)N2CCN(c3nc4ccccc4s3)CC2)cc1OC (configuration not stated)	-12%
Cc1cccc(-n2c(C)cc(C=C(C#N)C#N)c2C)c1	-12%
COc1ccccc1NC(=O)C1=C(C)Nc2nnnn2C1c1ccncc1 (configuration not stated)	1%
COC(=O)C(C)N(c1ccc(C)cc1)S(=O)(=O)c1c(C)[nH]c(=O)[nH]c1=O (configuration not stated)	-3%
Cc1ccccc1NC(=S)N(C)Cc1cn(C)c2ccccc12	?
CC(=O)C1=C(C)N(Cc2ccccc2)C(=O)N[C@H]1c1ccco1	-6%
Cc1ccc(CNC(=O)c2cc3c(=O)n4ccccc4nc3n(CC3CCCO3)c2=N)cc1 (configuration not stated)	?
CC(=NC(C)C)C1=C(O)C(C)OC1=O (configuration not stated)	0%
COc1cc(-n2c(N)c(C(=O)NCc3ccco3)c3nc4ccccc4nc32)cc(OC)c1OC	?
C[C@@H](CCCCC(=O)Nc1ccc(C(F)(F)F)cc1)NCCc1cnc[nH]1	4%
CCN(CCCNS(=O)(=O)c1ccc2c(c1)CCN2C(C)=O)c1cccc(C)c1	?
CCCC(=O)n1nc(-c2ccc(Cl)cc2)nc1SC	-27%
O=C(c1ccccc1F)N1CCC(O)(c2cccnc2)CC1	-4%
CCC(=O)OCCNc1cc(Sc2nc3ccccc3s2)c2nonc2c1[N+](=O)[O-]	3.2µM*

2 compounds picked at random from the list so far, as already listed:
SMILES	HPGD inh
C[C@@H](CCCCC(=O)Nc1ccc(C(F)(F)F)cc1)NCCc1cnc[nH]1	4%
CC(=NC(C)C)C1=C(O)C(C)OC1=O (configuration not stated)	0%

The list is partial; the hit share may differ from the screen's.
